# From PubChem
# HCMV UL50-53 inh: cytomegalovirus nuclear egress complex inhibition; HTRF UL50-UL53 interaction, normalized percent inhibition; inhibition, % (test concentration not listed); actives 0.15% (n = 190,000); AID 1918969;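 active = both replicates at 50% or more, plus weaker picks with an unusually low signal ratio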;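 also: stock transfer was 100 nL into about 20 µL; 0% = negative control wells and 100% = wells with untagged competitor protein; inactives centre near -12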
# The depositor's hits bear a star; & = joins results of further samples. An excerpt (hit frequency here may not be typical).
# The opening two entries (preview)
SMILES,HCMV UL50-53 inh
CCCCC[C@H](O)/C=C/[C@H]1C(=O)C[C@H](O)[C@@H]1C/C=C\CCCC(=O)NC(CO)CO,-11&-11
O=C(Cc1ccccc1)Nc1nc2ccc(Cl)cc2c2nc(-c3ccco3)nn12,-2

# Main list, repeating the preview:
SMILES,HCMV UL50-53 inh
CCCCC[C@H](O)/C=C/[C@H]1C(=O)C[C@H](O)[C@@H]1C/C=C\CCCC(=O)NC(CO)CO,-11&-11
O=C(Cc1ccccc1)Nc1nc2ccc(Cl)cc2c2nc(-c3ccco3)nn12,-2
CC(C)(C)NCC(O)COc1ccccc1C1CCCC1 (stereo not drawn),-6
O=C(c1ccc(S(=O)(=O)N2CCCCC2)cc1)n1cnc2ccccc21,-25
Cn1c(N2CCCCS2(=O)=O)nc(C(=O)NCc2ccc(F)cc2)c(O)c1=O,-71
CC(=O)Nc1ccc2nc(NC(=O)/C=C/c3ccccc3)sc2c1,-14
COC1C(=O)[C@]2(C)C(OC)C[C@H]3OC[C@@]3(OC(C)=O)[C@H]2C(OC(=O)c2ccccc2)[C@@]2(O)CC(OC(=O)C(O)C(NC(=O)OC(C)(C)C)c3ccccc3)C(C)=C1C2(C)C (stereo partly drawn),-7
Nc1nc(NC2CC2)c2ncn(C3C=C[C@@H](CO)C3)c2n1 (stereo partly drawn),-22
O=C(O)CCCCCNC(=O)NC1CCCCC1,-13
Nc1nc(N)c2nc(-c3cccc(O)c3)c(-c3cccc(O)c3)nc2n1,-156
C=C(C)Cn1c(CNC(=O)CCC)nc2ccccc21,-11
Cc1ccc2cc(CCNC(=O)CC(C)C)c(=O)[nH]c2c1,-4
C=CC(=O)Nc1cccc(CN2C(=O)N(c3cc(OC)cc(OC)c3)Cc3cnc(NCCCCN(CC)CC)nc32)c1,-1
CC(C)Cn1c(-c2cccs2)nc2ccccc21,-1
COc1cccc(C(=O)N=c2sc3cc(Cl)ccc3n2C)c1,-4
CCOc1ccccc1NC(=O)CSc1nccn1-c1ccccc1,-14
Cc1ccc2nc(NC(=O)c3ccc(Br)s3)sc2c1,-5
CCN1C(=O)C2ON(c3ccc(Cl)cc3)C(c3ccc(N(C)C)cc3)C2C1=O (stereo not drawn),-2
COc1cc(C(F)(F)F)nc(-c2ccccn2)n1,-4
Cc1cccc2c(C(=O)N(C)C(C)C)cc(-c3cnn(C(C)C)c3)nc12,-28
Cc1cc(C(=O)N2CCCC(C)C2)c2ccc(C)c(C)c2n1 (stereo not drawn),-16
CCC(=O)NCCCc1nc2ccccc2n1CC,3
CCC(C)NS(=O)(=O)c1cccc2nsnc12 (stereo not drawn),-84
CCOC(=O)c1ccnc(C(=O)OCC)c1,-25&-25
CCc1nc(NC(=O)N(C)CC2Cc3ccccc3O2)nn1C (stereo not drawn),40&40
CCOC(=O)c1cc(C#N)c(Oc2ccc(C)cc2)nc1C(F)(F)F,-12
Nc1nc(C23CC4CC(CC(C4)C2)C3)cs1,10&-19
O=C(CSc1nc(-c2ccccc2)c(-c2ccccc2)o1)N1CCOCC1,-18
C=CCSc1nnc(-c2ccncc2)o1,-7
CC1(C)CC(=O)C(SC(F)(F)F)C(=O)C1,-1
CC(/C=C1\SC(=S)N(CCC(=O)Nc2ccccc2O)C1=O)=C\c1ccccc1,-14
O=C(NCc1ccccc1Cl)c1ccc[nH]1,-6
O=C(O)CCCN1CCN([C@H](c2ccccc2)c2ccc(Cl)cc2)CC1,-36
CCCCCCCCCCCCCCCCOC[C@H](COP(=O)([O-])OCC[N+](C)(C)C)OC(=O)NC,1&1&9
CCC(CC)O[C@@H]1C=C(C(=O)OC)C[C@H](N)[C@H]1NC(C)=O,-40
Cc1ccc2c(c1)sc(=NC(=O)c1ccccc1)n2C,-29
Nc1ncnc2c1c(I)cn2[C@@H]1O[C@H](CO)[C@H](O)C1O (stereo partly drawn),-27&-14
CCCCC[C@H](O)/C=C/[C@@H]1[C@@H](C/C=C\CCCC(=O)O)[C@@H](O)C[C@@H]1O,-14&-14&-21
CCOC(=O)c1ccc2nc(C(F)(F)F)nc(Cl)c2c1,8&-2
NC[C@H]1O[C@H](O[C@H]2[C@H](O)[C@@H](O[C@H]3O[C@H](CO)[C@@H](O)[C@H](N)[C@H]3O)[C@H](N)C[C@@H]2N)[C@H](O)[C@@H](O)[C@@H]1O,-15
COC(=O)c1ccsc1NC(=O)CCOc1ccccc1,2
CCCCC[C@@](C)(O)/C=C/[C@@H]1C(C/C=C\CCCC(=O)O)[C@@H](O)C[C@H]1O (stereo partly drawn),-29&-29
CCOC(=O)c1ccc(N=Cc2ccc(OC(=O)c3ccco3)cc2)cc1,-5
CCC(C)N1C(=O)CCC1C(=O)NCc1ccc2c(c1)OCO2 (stereo not drawn),2
O=S(=O)(NC1CCN(Cc2ccccc2)CC1)c1ccc(I)cc1,-8
N[C@@H](Cc1cc(CP(=O)(O)O)cc(-c2ccccc2Cl)c1)C(=O)O,-3
OB(O)c1cc2ccccc2s1,-22
CC(C)(C)NCC(O)COc1cccc2c1CCC(=O)N2 (stereo not drawn),0&-29
CN(C)c1ccc(C(Nc2nccs2)c2ccc3cccnc3c2O)cc1 (stereo not drawn),-11
CC(=O)N[C@@H](CC(=O)O)C(=O)N[C@@H](CCC(=O)O)C(=O)O,1
COC(=O)C[C@](O)(CCCC(C)(C)O)C(=O)OC1C(OC)=C[C@]23CCCN2CCc2cc4c(cc2C13)OCO4 (stereo partly drawn),-51
O=C(O)CC1CC(c2ccccc2)=NO1 (stereo not drawn),7
CCC1=CC2CN(C1)Cc1c([nH]c3ccccc13)[C@@](C(=O)OC)(c1cc3c(cc1OC)N(C)C1[C@@](O)(C(=O)OC)C(OC(C)=O)[C@]4(CC)C=CCN5CC[C@]31C54)C2 (stereo partly drawn),-69
CC(C)C(=O)Nc1c(C(=O)c2ccccc2)oc2ccccc12,-16
COc1ccc(-c2csc(NC(=O)/C=C/c3cccs3)n2)c(OC)c1,-19
Cc1nc(N2CCCN(C)CC2)c2c3c(sc2n1)CCC3,-11
Cc1ccc(SCC(=O)Nc2ccc(I)cn2)cc1,-8
N#CC(C#N)=C(N)COc1cccc(Cl)c1,-1
CC(C)(C)C(=O)NC(Sc1nccc(=O)[nH]1)=C(Cl)Cl,-22
CCn1c(SCC(N)=O)nnc1-c1sc2cc(Cl)ccc2c1Cl,6

# Other entries follow.
SMILES,HCMV UL50-53 inh
Cc1nc2ccccc2nc1SCC(=O)N1CCCCC1,-16
O=C(O)C1CCN(S(=O)(=O)c2cccc3cccnc23)CC1,0
CC(=O)Oc1cn(C)c2ccccc12,-30
CC1=CS/C(=C(/C#N)C(=O)N2CCOCC2)N1c1ccccc1,4
O=C(O)c1cccc(C(=O)O)n1,1
Cc1nsc(NC(=O)N2CCC(C(O)CC(C)C)CC2)n1 (stereo not drawn),-6&-6
CCCc1cc(=O)oc2cc(O)cc(O)c12,-8
CCCCCCCCCCCCCCCCOC[C@@H](CO)SC(C)=O,-6&-6
Cn1cc(/C=C2/C(=O)Nc3cccnc32)c2ccccc21,-20
CCC1=N/C(=C\c2ccc(Br)cc2)C(=O)O1,-9
CSC1=C(C#N)C(c2cccc(Cl)c2Cl)C2=C(CCCC2=O)N1 (stereo not drawn),-8&-24
CCCCC(CC)CCC(CC(C)C)OS(=O)(=O)O (stereo not drawn),-28
c1ccc(-c2nnc(-c3ccccc3)o2)cc1,-4
OCC1OC(Oc2cc(O)cc(C=Cc3ccc(O)cc3)c2)C(O)C(O)C1O (stereo not drawn),-42&-80
O=C(OCc1nc2ccccc2s1)c1cccc(N2C(=O)CCC2=O)c1,-12
CCSc1nnc(NC(=O)c2ccc3ccccc3c2)s1,-7
CC(Sc1ncnc2nc[nH]c12)c1ccccc1 (stereo not drawn),-19
CCS(=O)(=O)NCCc1cc2ccc(OC)cc2[nH]c1=O,-15
COc1cccc(Nc2c(C(N)=O)cnc3c(C)cc(S(=O)(=O)c4cccc(C(=O)N(C)C)c4)cc23)c1,-37
CCC[C@@H]1OC2C[C@H]3[C@@H]4CCC5=CC(=O)C=C[C@]5(C)[C@@H]4C(O)C[C@]3(C)[C@@]2(C(=O)CO)O1 (stereo partly drawn),5
Cn1ccnc1-c1ccccc1C(=O)N1CCN(Cc2cccc(Cl)c2)CC1,10
O=C(O)Cc1ccc2ocnc2c1,-1
Cc1csc(CNC(=O)Cc2csc(-c3ccccc3)n2)n1,-24&-24
COc1ccc(-c2ccc3ccccc3n2)cc1OC,-4
Cc1nc2ccccc2cc1C(=O)NCc1cccnc1,-10
c1ccc(-n2nnnc2-c2ccc3ccccc3n2)cc1,-7
O=C(CCn1c(=O)sc2ccccc21)NCCC1=CCCCC1,6
C=CCc1cccc(C=NNC(=O)CN2CCN(Cc3ccccc3)CC2)c1O,-6
C=CCSc1nc2ccccc2[nH]1,-14
CCCCCC(=O)CC[C@H]1[C@H](O)CC(=O)[C@@H]1CCCCCCC(=O)O,0&0

# Exported bar-delimited: entries from further up.
SMILES | HCMV UL50-53 inh
O=C(O)CCCN1CCN([C@H](c2ccccc2)c2ccc(Cl)cc2)CC1 | -36
CCCCCCCCCCCCCCCCOC[C@H](COP(=O)([O-])OCC[N+](C)(C)C)OC(=O)NC | 1&1&9
CCC(CC)O[C@@H]1C=C(C(=O)OC)C[C@H](N)[C@H]1NC(C)=O | -40

# (further entries)
SMILES,HCMV UL50-53 inh
OC[C@H]1NC[C@H](O)[C@@H](O)[C@@H]1O,-2
O=C(CSc1ncccn1)Nc1ccccc1C(F)(F)F,3
CCN1CCN(Cc2ccc(NC(=O)c3cc(NC(=O)c4cc(C)on4)cc(OC)c3)cc2C(F)(F)F)CC1,-3
CC(C)(C)Cn1c(N)nc2ccc(-c3[nH]c(C(C)(C)C)nc3-c3ccc(F)cc3)nc21,5
Cc1nnc(NC(=O)COc2ccc(Cl)cc2)s1,-23
COC(=O)Oc1ccc2c3c(c(=O)oc2c1)CCCC3,-13
Cc1nsc(NC(=O)N2CCCCC2c2cccc(F)c2)n1 (stereo not drawn),-11
C=C1C(=O)O[C@H]2[C@H]1CC/C(C)=C/CC[C@@]1(C)O[C@@H]21,-7
Cc1cccc2sc(NN)nc12,-11
Cc1cc2ccccc2n1CCNC(=O)C(C)(C)C,-6
COc1cccc(CSCC(=O)NCc2ccccc2Cl)c1OC,-11
CCCCCCCCCCCCCCCC(=O)N[C@H](C)CO,-11&-11
CN1C(=O)S/C(=C\C=C\c2ccccc2)C1=O,-14
O=C(Nc1nc(-c2ccccc2)cs1)c1cccs1,-15
CCN(CC)Cc1cc2c(-c3ccccc3)cc(=O)oc2c(C)c1O,-59
Cc1cc2nnc(SCC(=O)NCc3ccco3)n2c2ccccc12,13
FC(F)(F)c1ccc(N2CCN(c3ccccc3)CC2)nc1,-10
CC1OC(OCC2OC(Oc3c(-c4ccc(OCCO)c(OCCO)c4)oc4cc(OCCO)cc(O)c4c3=O)C(O)C(O)C2O)C(O)C(O)C1O (stereo not drawn),-50
CC(=O)Nc1ccc(NC(=O)CSc2ccccc2C)cc1,-26
O=C(NCc1ccccc1)C1CCN(S(=O)(=O)c2cccs2)CC1,-7
COc1ccc2nc3cc(Cl)ccc3c(Nc3cc(CN4CCCC4)c(O)c(CN4CCCC4)c3)c2n1,-184
CC(C)(C)C(=O)CSc1nnc(-c2cnccn2)s1,-53
O=S(c1cccc(C(F)(F)F)c1)c1ccc2nnc(Cl)n2n1 (stereo not drawn),-6
FC(F)(F)c1cccc(NC(=S)Nc2cccnc2N2CCC(C(F)(F)F)CC2)c1,-4
Cc1ccn2cc(CSc3ncccn3)nc2c1,-6
COc1ccc(CC(=O)Nc2nnc(SCc3ccccc3)s2)cc1OC,-23
Cc1ncc(-c2cc(C(=O)N(C)Cc3csc(C)n3)c3ccc(F)cc3n2)cn1,-27&-27
CNC(=O)n1c(C(F)(F)F)nc2ccccc21,-12
Cc1ccc2cc(CCNC(=O)c3ccco3)c(=O)[nH]c2c1,-15
Cc1nnc(SCC(=O)Nc2ccc3c(c2)OCCO3)s1,1

# Some of the entries above, set out differently:
SMILES	HCMV UL50-53 inh
CC1OC(OCC2OC(Oc3c(-c4ccc(OCCO)c(OCCO)c4)oc4cc(OCCO)cc(O)c4c3=O)C(O)C(O)C2O)C(O)C(O)C1O (stereo not drawn)	-50
CC(=O)Nc1ccc(NC(=O)CSc2ccccc2C)cc1	-26
O=C(NCc1ccccc1)C1CCN(S(=O)(=O)c2cccs2)CC1	-7
COc1ccc2nc3cc(Cl)ccc3c(Nc3cc(CN4CCCC4)c(O)c(CN4CCCC4)c3)c2n1	-184
CC(C)(C)C(=O)CSc1nnc(-c2cnccn2)s1	-53
O=S(c1cccc(C(F)(F)F)c1)c1ccc2nnc(Cl)n2n1 (stereo not drawn)	-6
FC(F)(F)c1cccc(NC(=S)Nc2cccnc2N2CCC(C(F)(F)F)CC2)c1	-4

# Going on with the list.
SMILES,HCMV UL50-53 inh
S=c1[nH]nc(SCC2CC2)s1,-10
CC(=O)Nc1ncc(Cc2cccc(Cl)c2)s1,-20
O=C(CCCc1ccc(-c2ccccc2F)cc1)Nc1ccc(O)cc1,-9&0
Cc1cccc(CSc2nc3c(cnn3-c3ccc(Cl)cc3)c(=O)[nH]2)c1,0
COc1ccc(/C=C/CN2CCc3c(cc(-c4cccc(-n5nc(C)cc5C)c4)c(=O)n3C)C2)cc1,-48
O=S(=O)(c1ccccc1)c1cnc2c(N3CCNCC3)cccc2c1,-59
O=S(=O)(NCC1CCCO1)c1cccc2cccnc12 (stereo not drawn),-9
c1ccc(OCCSc2nnnn2-c2ccccc2)cc1,-26
